# RE007 growth inh: less growth of the S. pombe RE007 Vpr strain; actives 0.21% (n = 360,000); AID 651644; Potency, µM (titrated, usually from 92.2 µM), for inactives: at the top dose activity change, negative = less growth; S. pombe RE007 Vpr strain, BacTiter-Glo ATP luminescence, 24 h; control for the full effect not named in the record; active = well fitted falling curve with a large enough effect; inconclusive = small, poorly fitted or top-dose-only effect; inactive = no such curve, though single readings can be large or run the other way;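 also: % is scaled to controls: 0 for no effect and ±100 for the full control effect; nearly all actives have a fitted effect of over 50% in size; the assay follows cell death caused by Vpr and the record does not say whether a fall means rescue or toxicity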
#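 Fission yeast RE007 carrying one integrated HIV-1 vpr copy, seeded at OD 0.01 in PMG+AL medium with 23 nL pinned compound. Grown 24 h at 30 degrees; viability read by BacTiter-Glo luminescence after 5 min.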
# Cruzain noTriton: cruzain (T. cruzi) inhibition without detergent | P25779 | purified cruzain, Z-FR-AMC fluorescence, no detergent | Potency, µM, inactives show max response, negative = inhibition, hits mostly inhibitors | actives 2.3% (n = 200,000) | AID 1476; active = well fitted curve in the direction sought with a large enough effect; inconclusive = small, poorly fitted or top-dose-only effect, or another doubt; inactive = no such curve, though single readings can be large; an effect the other way counts as inactive or inconclusive;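 also: plate controls were enzyme without inhibitor for no effect and buffer without enzyme for full effect; nearly all actives have a fitted effect of over 40% in size; top concentration of the series not given in the record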
# Target sequence (P25779 123-467 limits assumed): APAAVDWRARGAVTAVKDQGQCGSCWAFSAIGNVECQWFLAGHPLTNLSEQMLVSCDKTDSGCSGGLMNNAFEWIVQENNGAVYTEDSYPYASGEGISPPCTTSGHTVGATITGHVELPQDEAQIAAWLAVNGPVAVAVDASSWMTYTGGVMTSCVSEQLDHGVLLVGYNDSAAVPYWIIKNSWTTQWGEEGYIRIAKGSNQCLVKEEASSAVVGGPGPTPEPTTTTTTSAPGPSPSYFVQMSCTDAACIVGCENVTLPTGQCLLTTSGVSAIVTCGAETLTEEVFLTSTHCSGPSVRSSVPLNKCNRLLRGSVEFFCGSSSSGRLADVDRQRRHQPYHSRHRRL
#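 Purified cruzain at 1.5 nM, pre-incubated 15 min with compound at room temperature in 100 mM sodium acetate pH 5.5, 5 mM DTT, 0.00005% Triton X-100. Reaction started with 2 uM Z-FR-AMC; AMC fluorescence increase over 60 s gives rate.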
# NS1 function inh: influenza NS1 inhibition | AID 2326 | S. cerevisiae slowed by influenza A NS1, growth recovery by OD600 | Potency, µM (highest dose often 46.1 µM), inactives show at the highest dose activity, positive = more growth | actives 0.4% (n = 270,000); also: actives are rising curves; nearly all actives have a fitted effect of over 50% in size
#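 S. cerevisiae expressing influenza A NS1, grown in glucose, washed, then diluted 1:100 into pH 6.0 -URA galactose medium with 23 nl compound. Growth recovery read as OD600; NS1-free strain serves as control.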
# Lassa entry inh: Lassa virus entry inhibition | Lassa virus pseudotype entry inhibition, cell reporter; control for the full effect not named in the record | Potency, µM (highest dose often 37.9 µM), inactives show at the highest dose activity change, negative = inhibition, usual class: inhibitors | actives 1.2% (n = 300,000) | AID 540256; active means well fitted inhibition curve with a large enough effect; inconclusive means small, poorly fitted or top-dose-only effect, or effect the other way; inactive means flat fitted curve, though single readings scatter; tested in HEK293 cells; also: % is scaled to controls: 0 for no effect and ±100 for the full control effect; nearly all actives have a fitted effect of over 50% in size; luciferase read-out
# 2A StopGo: lowers the luciferase signal of an FMDV 2A StopGo reporter; actives 1.2% (n = 410,000); human cells with a luciferase reporter of 2A StopGo recoding; control for the full effect not named in the record; AID 1159524; Potency, µM (top dose mostly 57.9 µM), for inactives: at the highest dose signal change, negative = less light; active = well fitted falling curve with a large enough effect; inconclusive = small, poorly fitted or top-dose-only effect; inactive = no such curve, though single readings can be large or run the other way; tested in HEK293T cells; also: % is scaled to controls: 0 for no effect and ±100 for the full control effect; nearly all actives have a fitted effect of over 45% in size; luciferase light after 4 h
# SARS PLpro yeast: blocks SARS-CoV papain-like protease in a yeast assay. Potency, µM (highest dose often 32.9 µM), for the others: at the highest dose activity, positive = growth rescue. actives 0.19% (n = 330,000). S. cerevisiae expressing SARS-CoV PLpro, growth rescue; control for the full effect not named in the record; also: 0% is about no effect; nearly all actives have a fitted effect of over 55% in size; growth read by luminescence after 48 h
# Marburg entry inh: blocks Marburg virus binding to or entry into cells. Marburg virus pseudotyped entry inhibition, cell reporter; control for the full effect not named in the record; about a third of the inactives were read at about 46 µM. Potency, µM (series often up to 37.8 µM), for inactives: top-dose activity change, negative = inhibition, hits mostly inhibitors. actives 1.8% (n = 300,000); active = well fitted inhibition curve with a large enough effect; inconclusive = small, poorly fitted or top-dose-only effect, or effect the other way; inactive = flat fitted curve, though single readings scatter; tested in HEK293 cells; about a fifth of its hits are not listed in these tables; also: % is scaled to controls: 0 for no effect and ±100 for the full control effect; luciferase read-out
# Cruzain inh Det: cruzain (T. cruzi) inhibition with detergent | actives 0.43% (n = 200,000) | Potency, µM, inactives show max response, negative = inhibition, most hits filed as inhibitors | P25779 | purified cruzain, Z-FR-AMC fluorescence, 0.01% Triton; active = well fitted curve in the direction sought with a large enough effect; inconclusive = small, poorly fitted or top-dose-only effect, or another doubt; inactive = no such curve, though single readings can be large; an effect the other way counts as inactive or inconclusive;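 also: plate controls were neutral wells for no effect and buffer without enzyme for full effect; nearly all actives have a fitted effect of over 40% in size; top concentration of the series not given in the record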
#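 15 min RT preincubation of 1.5 nM cruzain with compound, then 2 uM Z-FR-AMC added; kinetic AMC fluorescence, 60 s delta. Triton X-100 0.01%, pH 5.5.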
# Active calls of the source: *; ? = inconclusive; nt = no result given; [ ] = dose if it differs, or a comment. Unless noted, calls follow the shape of the dose curve; as a rule, active means well fitted rising curve with a large enough effect; inconclusive means small, poorly fitted or top-dose-only effect; inactive means no such curve, though single readings can be large or run the other way. Potency is read from the fitted curve at half-maximal effect.
# Order of results – RE007 growth inh	Cruzain noTriton	NS1 function inh	Lassa entry inh	2A StopGo	SARS PLpro yeast	Marburg entry inh	Cruzain inh Det
COc1ccc(C(C)=O)cc1COC(=O)c1cnc(Cl)c(Cl)c1
 : -18%	nt	-1%	nt	?	-3%	-1%[46.1 µM]	nt
Cc1ccc(C)c(NS(=O)(=O)c2cc(C(=O)N3CCc4ccccc4C3)ccc2Cl)c1
 : 11%	-15%	-123%	-7%	-16%	-30%	-30%	0.4%
Cc1ccc(/C=C/C(=O)Nc2ccc(S(=O)(=O)Nc3cc(C)nc(C)n3)cc2)cc1
 : -12%	nt	5%	0%	30%[activator]	-2%	9%[46.1 µM]	nt
O=C(O)c1cc(S(=O)(=O)NCCCN2CCCC2=O)ccc1Cl
 : -14%	nt	nt	-4%	-10%	-4%	10%	nt
Cc1ccc(C)c(S(=O)(=O)N2CCN(C(=O)CCNS(=O)(=O)c3ccccc3)CC2)c1
 : 1%	nt	-4%	-5%	-22%	0%	-10%	nt
O=C(NCc1ccc2c(c1)OCO2)c1ccc2c(c1)OCO2
 : 15%	nt	-5%	nt	22%	0%	nt	nt
Cc1ccccc1NS(=O)(=O)c1cccc(C(=O)Nc2cccc(C(=O)O)c2)c1
 : 16%	nt	-29%	nt	-11%	-11%	nt	nt
O[C@@H]1CN(C2CCCCC2)CC[C@H]1N1CCN(CCc2ccccc2)CC1
 : 2%	nt	-4%	1%[46.1 µM]	-3%	-3%	?	nt
CC1C2Cn3c(nc4ccccc43)C1N(C)O2 (stereo not drawn)
 : -2%	nt	3%	nt	-6%	1%	nt	nt
CCOC(=O)Cn1c(=O)c2c(nc(N3CCCCC3)n2Cc2ccccc2)n(C)c1=O
 : -6%	?	-26%	?	?	12%	?	0.2%
Clc1cccc(N=NN2CCOCC2)c1Cl
 : -28%	nt	-7%	nt	11%	1%	nt	nt
Cc1ccc(Nc2nnc(SCn3nnc4ccccc4c3=O)s2)cc1
 : -12%	?	0%	-24%	-22%	-7%	19%	2.5%
CC(Cc1cccs1)NC(=O)Nc1ccc(F)cc1 (stereo not drawn)
 : 3%	-2%	-49%	14%	53%[activator]	5%	-3%	6.1%
Nc1cc(S(=O)(=O)N2CCCCC2)ccc1N1CCOCC1
 : 7%	nt	nt	-27%[46.1 µM]	-6%	0%	8%[46.1 µM]	nt
Cc1cc2c(c(SCC#N)n1)C(=O)OC2
 : 4%	nt	nt	17%[46.1 µM]	-8%	1%	0%[46.1 µM]	nt
Cn1cnnc1SCC(=O)c1ccc(O)c(O)c1
 : -12%	nt	nt	0%[46.1 µM]	21%	0%	7%[46.1 µM]	nt
CCN1C(=O)CC(C(=O)Nc2ccc(OC)cc2)SC1=Nc1ccc(C)c(C)c1 (stereo not drawn)
 : nt	9%	nt	-3%[46.1 µM]	-14%	nt	?	-3.0%
COc1ccc(CN2CCC(Oc3ccc(C(=O)NCc4ccccn4)cc3)CC2)c(F)c1
 : -16%	nt	-11%	nt	-9%	-1%	nt	nt
Cc1cccc(NC(=O)N2C3CCCC2CC(NC(=O)C(C)(C)C)C3)c1 (stereo not drawn)
 : 3%	nt	11%	nt	-6%	7%	nt	nt
CCOC(=O)c1c(NC(=O)COC(=O)c2ccc(O)cc2)sc(C(=O)N(C)C)c1C
 : 4%	nt	-9%	nt	-9%	-1%	nt	nt
O=C(Nc1ccc(NC(=O)c2ccccc2F)cc1)c1ccccc1F
 : -24%	nt	-4%	-13%	19%	-6%	?	nt
COCc1cc(C)nc2sc3c(c12)NC(c1ccc(NC(C)=O)cc1)N(c1ccc(C)cc1)C3=O (stereo not drawn)
 : nt	?	nt	?	-12%	nt	3%[46.1 µM]	-6.6%
Cc1ccc(C)c(CN2C(=O)CSc3ccc(C(=O)NCCN4CCOCC4)cc32)c1
 : 1%	nt	1%	nt	-4%	1%	?	nt
O=c1oc2c(CN3CCCC3)c(O)ccc2cc1-c1ccccc1
 : nt	?	nt	-3%[46.1 µM]	42%[activator]	nt	nt	-19%
Cc1c(C(=O)OCC(=O)NCC2CCCO2)oc2ccccc12 (stereo not drawn)
 : 3%	nt	nt	-16%	24%	-1%	-15%	nt
CCn1c(SCC(=O)NC2CC2)nnc1-c1ccncc1
 : 16%	nt	8%	13%[46.1 µM]	-15%	-2%	11%[46.1 µM]	nt
CCOP(=O)(OCC)C(NC(=O)Nc1ccc(Cl)cc1)C(=O)N(CC)CC (stereo not drawn)
 : 12%	22%	-5%	5%	4%	3%	1%	2.3%
CC12CCC(=O)N1C(C(=O)NNC(=O)c1ccc(F)cc1)CS2 (stereo not drawn)
 : 2%	nt	nt	4%[46.1 µM]	-11%	-2%	15%	nt
COC(=O)c1cc(OC)c(OC)c(OC)c1[N+](=O)[O-]
 : 1%	nt	-2%	24%[46.1 µM]	-5%	1%	25%[46.1 µM]	nt
CC(C)=NNc1nc2c(c(=O)n(C)c(=O)n2C)n1C
 : 6%	nt	6%	nt	-1%	2%	nt	nt

# A portion from further up, for reference:
# Order of results – RE007 growth inh	Cruzain noTriton	NS1 function inh	Lassa entry inh	2A StopGo	SARS PLpro yeast	Marburg entry inh	Cruzain inh Det
Cc1c(C(=O)OCC(=O)NCC2CCCO2)oc2ccccc12 (stereo not drawn)
 : 3%	nt	nt	-16%	24%	-1%	-15%	nt
CCn1c(SCC(=O)NC2CC2)nnc1-c1ccncc1
 : 16%	nt	8%	13%[46.1 µM]	-15%	-2%	11%[46.1 µM]	nt
CCOP(=O)(OCC)C(NC(=O)Nc1ccc(Cl)cc1)C(=O)N(CC)CC (stereo not drawn)
 : 12%	22%	-5%	5%	4%	3%	1%	2.3%
CC12CCC(=O)N1C(C(=O)NNC(=O)c1ccc(F)cc1)CS2 (stereo not drawn)
 : 2%	nt	nt	4%[46.1 µM]	-11%	-2%	15%	nt

# (more compounds)
# Order of results – RE007 growth inh	Cruzain noTriton	NS1 function inh	Lassa entry inh	2A StopGo	SARS PLpro yeast	Marburg entry inh	Cruzain inh Det
CC(=O)c1ccc(OCC(=O)c2ccc(-c3ccccc3)cc2)cc1
 : -21%	?	1%	?	0%	6%	19%	-0.4%
CCc1noc(C)c1C(=O)OC(C)C(=O)Nc1cc([N+](=O)[O-])ccc1OC (stereo not drawn)
 : -12%	nt	nt	-5%	-21%	3%	-22%[46.1 µM]	nt
O=C(O)COc1ccc(/C=N/NC(=O)c2ccc(-c3csc(Nc4ccc(Cl)cc4)n3)cc2)cc1
 : 6%	nt	5%	4%	2%	-2%	16%[46.1 µM]	nt
O=C(NNC(=O)C1CCN(c2ncccn2)CC1)c1ccc(F)cc1
 : 22%	nt	-6%	4%[46.1 µM]	-5%	-1%	0%[46.1 µM]	nt
COc1ccc(CNC(=O)C(OC(=O)c2cccs2)C(C)C)cc1 (stereo not drawn)
 : 8%	nt	-6%	?	-8%	6%	?	nt
O=C(O)c1cccnc1Sc1ccccc1
 : nt	-4%	41%	5%	-13%	3%	6%	4.8%
Cc1ccc(C(C[N+](=O)[O-])Sc2ccc(N)cc2)cc1 (stereo not drawn)
 : ?	nt	-45%	-1%	?	-4%	3%[46.1 µM]	nt
Cc1c(NC(=O)c2cccc(NC(=O)Cc3ccc(F)cc3)c2)c(=O)n(-c2ccccc2)n1C
 : 6%	nt	nt	8%	-18%	0%	-39%	nt
CC(=O)Nc1cccc(C(=O)N2CCN(S(=O)(=O)c3ccc4ccccc4c3)CC2)c1
 : -6%	nt	-9%	nt	-22%	-1%	nt	nt
O=C(CSc1ccc(Cl)cc1)N1CCCC1
 : 2%	nt	2%	nt	47%[activator]	2%	nt	nt
CC(=O)Nc1ccc(S(=O)(=O)NC(CC(=O)N(C)Cc2ccccc2)C(C)C)cc1 (stereo not drawn)
 : -12%	10%	9%	-29%	-17%	-4%	?	0.0%
COc1cccc(-n2c(SC3CCOC3=O)nc3ccccc3c2=O)c1 (stereo not drawn)
 : 11%	-4%	10%	-3%	2%	6%	?	-0.6%
Cc1cc(F)ccc1S(=O)(=O)Nc1ccc2c(c1)CCCN2C(=O)c1cccs1
 : nt	14%	nt	?	-21%	nt	nt	-6.4%
CCOC(=O)c1c(C)nc2sc(C(N)=O)c(N)c2c1-c1ccccc1
 : 11%	-2%	-2%	-17%	-20%	8%	-15%	-2.3%
COc1ccc(C(CNC(=O)COc2ccc([N+](=O)[O-])cc2)N2CCCCC2)cc1 (stereo not drawn)
 : -8%	nt	-2%	nt	-17%	-18%	nt	nt
CCOc1ccc(NCc2ccccc2OCc2cccc(F)c2)cc1
 : ?	-5%	27%	?	?	12%	4%	-9.4%
COc1nc(-c2ccccc2)cc(-c2ccc3c(c2)OCO3)c1C#N
 : -2%	nt	9%	nt	7%	0%	?	nt
Cc1cccc(N2CCN(S(=O)(=O)c3cn(C)cn3)CC2)c1C
 : 2%	nt	-19%	nt	-8%	-1%	nt	nt
COc1ccc([N+](=O)[O-])cc1NC(=S)NC(=O)C(C)(C)C
 : 1%	nt	nt	?	-17%	0%	2%[46.1 µM]	nt
COc1cc(OC)c(-c2noc(C(=O)OC(C)(C)C)c2C(=O)OC(C)(C)C)c(OC)c1
 : 1%	?	-7%	1%	-19%	-7%	18%	-6.6%
CCOC(=O)c1c(NC(=O)COC(=O)Cn2c(C(F)(F)F)nc3ccccc32)sc(C)c1C
 : -7%	-4%	-9%	-2%	-27%	-1%	-24%[46.1 µM]	-6.4%
CC(C)=CCC/C(C)=C/CNC(=O)C[C@H]1C[C@H](C(=O)N2CCOCC2)[C@@]2(C)c3[nH]c4ccc(Cl)cc4c3CCN2C1=O
 : 4%	nt	nt	nt	?	-15%	0%	nt
COCC(=O)NCc1nc2ccccc2n1Cc1ccccc1F
 : 3%	-21%	-2%	12%	4%	8%	-7%	0.3%
CCn1c(=N)n(CC(O)c2cccs2)c2ccccc21 (stereo not drawn)
 : -10%	nt	7%	nt	-6%	1%	nt	nt

# Screens: PubChem BioAssay, National Center for Advancing Translational Sciences (NCATS)
